Sa RN4220 lethal – S. aureus RN4220 growth inhibition. 330,000 compounds, 0.33% hits. inhibition, % (concentration not given with the values). AID 1259311. OD600, 16 h;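 active means z-score of -3 or lower and OD600 up to 0.18 on both plates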;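 further: plate controls were untreated cells for no effect and reference antibiotic for full effect; stock transfer was 100 nL into about 80 µL; one replicate is shown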
ugtP null kill – kills S. aureus RN4220 lacking UgtP; S. aureus RN4220 ugtP deletion, OD600 growth, 16 h; some inactives read as strong as hits; 330,000 compounds, 0.54% hits; growth inhibition, % (no concentration beside the values);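 active means z-score under -3 and OD600 up to 0.15 on both plates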;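 further: plate controls were untreated wells for no effect and antibiotic for full effect; wells of about 80 µL received 100 nL stock; the first replicate is given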
Bead autofluor – counter-screen for toxin protease inhibitors: compound fluorescence. fluorescence intensity (test concentration not listed). 360,000 compounds, 3.1% hits. compound autofluorescence counterscreen, microsphere flow cytometry; stronger effect = higher value;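 active means at least 3 SD above the mean of all compounds, about 16000 in these data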;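 further: 100 nL of 1 mM stock went into each well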
BJeLR lethal – kills HRASV12-expressing BJeLR cells | BJeLR (HRASV12) viability, CellTiter-Glo ATP luminescence, 48 h; reference of the scale not given here | inhibition, % (concentration not given with the values) | 300,000 compounds, 0.17% hits | AID 1554;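 active means replicate mean above 50%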;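 further: 50 nL library stock added to about 25 µL; numbers are from one replicate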
PrP UTR inh – suppresses PrP 5' UTR mRNA reporter expression; 340,000 compounds, 0.35% hits; cell-based PrP 5' UTR mRNA reporter, plate reader; AID 488862; inhibition, % (concentration not given with the values);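 active means every replicate at 50% or more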;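 further: 0 = median of the neutral control wells; tested in H4 reporter cells; numbers are from one replicate; inactives centre near -14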
Mtb hypoxia inh – inhibitors of hypoxia-regulated fluorescent reporter in Mycobacterium tuberculosis; AID 1159583; fluorescence inhibition, % (test concentration not listed); M. tuberculosis hypoxia-regulated fluorescent reporter, fluorescence; 300,000 compounds, 0.1% hits;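 active means 35 to 45% if threefold the growth effect, above 45% if 1.5-fold the growth effect; inactive means the rest, general growth blockers included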;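 further: wells of about 50 µL received 100 nL stock; 0% = vehicle wells and 100% = reference inhibitor wells; whole bacteria with a GFP reporter of the hypoxia response; strong numbers were not always called active; many hits fall short of the cut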
Mtb hypoxia inh growth – also measured in Mtb hypoxia inh; calls as there; growth inhibition, %; measured here: M. tuberculosis growth (absorbance);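 0% = vehicle and 100% = reference antibiotic; read after six days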
An asterisk follows results filed as active; . = no result given.

SMILES	Sa RN4220 lethal	ugtP null kill	Bead autofluor	BJeLR lethal	PrP UTR inh	Mtb hypoxia inh	Mtb hypoxia inh growth
COc1cc(/C=N/N(C)c2ccccc2)ccc1O	.	.	4189	-8.3	-71.6	.	.
COc1cccc(-c2c(NC(C)=O)n(C)c3ccccc3c2=O)c1	1.5	7.5	3876	-8.1	-43.7	-5.4	-3.9
Cn1cccc1C(=O)C(=O)Nc1ccccc1C(F)(F)F	-0.1	7.2	4393	18.7	-37.4	-3.9	11.2
Nc1nonc1-n1nnc(C(=O)NN=Cc2cccnc2)c1CSc1ccccc1	7.3	11.6	.	.	.	11.9	8.5
Cc1cc(C)nc(N/N=C/c2ccccc2OCc2ccc([N+](=O)[O-])cc2)n1	.	.	2760	-1.1	-37.9	.	.
Cc1ccc(Cl)cc1Nc1nc(-c2sc(NC(=O)c3ccco3)nc2C)cs1	23.3	61.3	4188	-3.2	2.9	7.4	7.7
C/C(CC(=O)Nc1ccc2ccccc2c1)=N\NC(=O)c1cnccn1	.	.	2401	6.3	-31.5	.	.
CC1Sc2ccc(S(=O)(=O)N3CCC(C(=O)NCc4ccco4)CC3)cc2NC1=O (stereo unspecified)	2.7	9.7	4563	-6.3	6.6	13.6	3.8
O=C(NC(=S)Nc1ccc(CN2CCOCC2)cc1)c1ccc(-c2ccc(Cl)cc2)o1	2.2	28.3	.	1.3	.	-0.2	-3.1
COc1ccccc1NC(=O)c1cn(C)c(=O)c2cc(OC)c(OC)cc12	4.5	2.4	4523	4.3	-25.9	22.4	12.7
CN(Cc1cc(=O)n2ccsc2n1)Cc1nc2ccccc2c(=O)[nH]1	0.9	-2.7	2638	6.6	-15.4	-21.4	12.3
CCOc1ccc(CCNC(=O)COC(=O)CCC(=O)c2cccs2)cc1OCC	0.9	-0.4	4373	-2.8	-1.7	1.1	-5.1
CN1CCN(c2ncnc3c2c(-c2ccccc2)cn3-c2ccc(F)cc2)CC1	-1.0	-0.9	3963	-6.9	-10.8	13.1	9.0
CC(=O)Oc1ccc(C(=O)C2C3C(=O)N(c4ccccc4)C(=O)C3C3C=CC=NN32)cc1 (stereo unspecified)	1.4	3.6	.	.	.	3.8	7.8
COc1cc2c(cc1NC(=S)Nc1cccc(C)c1)oc1ccccc12	1.6	-17.7	11462	11.2	-18.6	-5.5	-6.2

Some of the entries so far, with values under each structure.
Each structure is followed by: Sa RN4220 lethal | ugtP null kill | Bead autofluor | BJeLR lethal | PrP UTR inh | Mtb hypoxia inh | Mtb hypoxia inh growth
COc1cc(/C=N/N(C)c2ccccc2)ccc1O
    . | . | 4189 | -8.3 | -71.6 | . | .
Cc1cc(C)nc(N/N=C/c2ccccc2OCc2ccc([N+](=O)[O-])cc2)n1
    . | . | 2760 | -1.1 | -37.9 | . | .
COc1cc2c(cc1NC(=S)Nc1cccc(C)c1)oc1ccccc12
    1.6 | -17.7 | 11462 | 11.2 | -18.6 | -5.5 | -6.2
COc1cccc(-c2c(NC(C)=O)n(C)c3ccccc3c2=O)c1
    1.5 | 7.5 | 3876 | -8.1 | -43.7 | -5.4 | -3.9
CC(=O)Oc1ccc(C(=O)C2C3C(=O)N(c4ccccc4)C(=O)C3C3C=CC=NN32)cc1 (stereo unspecified)
    1.4 | 3.6 | . | . | . | 3.8 | 7.8

(next part)
SMILES	Sa RN4220 lethal	ugtP null kill	Bead autofluor	BJeLR lethal	PrP UTR inh	Mtb hypoxia inh	Mtb hypoxia inh growth
Cc1ccc(C(=O)Nc2ncccc2C)o1	1.8	2.4	4090	.	-14.5	0.9	-2.5
CCC(=O)NC(=S)Nc1ccc(N2CCN(C(=O)c3ccc(Cl)cc3)CC2)cc1	1.4	16.2	4789	-2.8	-4.1	.	.
CCCCNC(=S)N1CCN(c2ccc(C(C)=O)cc2)CC1	3.5	-9.8	5795	-3.9	-15.4	4.0	14.5
COc1ccccc1NC(=O)c1ccc(Br)o1	4.1	-3.1	4730	-4.3	-14.4	.	.
Cc1cc(N2CCOCC2)nc2ccc(Cl)cc12	3.9	1.5	4503	2.7	-27.6	14.5	3.2
CCCCOc1ccc(NC(=S)Nc2cc(C)nc(SCCCC)n2)cc1	3.1	-0.3	2314	-7.2	11.9	9.5	4.9
COc1ccc(/C(=C\Nc2ccc(C)c(C)c2)C(C)=O)cc1OC	5.5	13.5	3745	2.2	-8.4	8.3	-4.4
O=P(O)(O)Oc1ccccc1P(=O)(c1ccccc1)c1ccccc1	2.7	2.9	3843	3.6	-22.0	10.3	9.1
CCC(=O)N1CCc2cc(S(=O)(=O)N3CCN(c4cc(C)ccc4C)CC3)ccc21	1.4	1.7	5465	-2.5	7.8	2.3	15.5
COC(=O)c1ccc(NC(=O)CSc2nc3ccc(N4C(=O)C5C6C=CC(C6)C5C4=O)cc3s2)cc1 (stereo unspecified)	11.4	-16.1	2253	6.6	-10.2	2.0	6.5
Cc1cc(=O)nc2c3ccccc3n(C(C)C(=O)Nc3cc(F)ccc3F)n12 (stereo unspecified)	2.9	6.9	5220	-2.1	-49.1	9.6	5.9
COc1cccc(N2CCN(S(=O)(=O)c3cccc4nsnc34)CC2)c1	0.4	6.5	2467	-10.8	-22.6	12.4	0.9
CC(C)CCn1c(=O)c2ccccc2n2c(CN3CCCC3)nnc12	4.2	5.3	4341	-4.1	-26.0	3.7	3.7
O=C(NC1CCCC1)C(c1ccncc1)N(C(=O)c1csnn1)c1ccc(F)c(Cl)c1 (stereo unspecified)	1.9	2.8	3521	-18.2	-35.1	20.1	9.1
COCCNC(=O)c1ccc(CS(=O)(=O)c2ccc(Cl)cc2)o1	1.0	-4.2	3246	-17.1	-16.0	7.7	9.2

Seven records drawn at random from the list so far:
SMILES	Sa RN4220 lethal	ugtP null kill	Bead autofluor	BJeLR lethal	PrP UTR inh	Mtb hypoxia inh	Mtb hypoxia inh growth
Cc1cc(N2CCOCC2)nc2ccc(Cl)cc12	3.9	1.5	4503	2.7	-27.6	14.5	3.2
Cc1cc(=O)nc2c3ccccc3n(C(C)C(=O)Nc3cc(F)ccc3F)n12 (stereo unspecified)	2.9	6.9	5220	-2.1	-49.1	9.6	5.9
O=P(O)(O)Oc1ccccc1P(=O)(c1ccccc1)c1ccccc1	2.7	2.9	3843	3.6	-22.0	10.3	9.1
COCCNC(=O)c1ccc(CS(=O)(=O)c2ccc(Cl)cc2)o1	1.0	-4.2	3246	-17.1	-16.0	7.7	9.2
CCCCNC(=S)N1CCN(c2ccc(C(C)=O)cc2)CC1	3.5	-9.8	5795	-3.9	-15.4	4.0	14.5
O=C(NC1CCCC1)C(c1ccncc1)N(C(=O)c1csnn1)c1ccc(F)c(Cl)c1 (stereo unspecified)	1.9	2.8	3521	-18.2	-35.1	20.1	9.1
COC(=O)c1ccc(NC(=O)CSc2nc3ccc(N4C(=O)C5C6C=CC(C6)C5C4=O)cc3s2)cc1 (stereo unspecified)	11.4	-16.1	2253	6.6	-10.2	2.0	6.5

Remaining list, next part
SMILES	Sa RN4220 lethal	ugtP null kill	Bead autofluor	BJeLR lethal	PrP UTR inh	Mtb hypoxia inh	Mtb hypoxia inh growth
COc1ccc(C=NNc2nc(C)cc(-c3ccccc3)n2)c(OC)c1	3.0	1.6	.	.	.	8.9	4.7
COc1cccc(CNC(=O)c2cc(S(=O)(=O)N3CCOCC3)ccc2N2CCCC2)c1	1.0	1.2	.	.	.	6.5	-5.0
CCCN(CC(=O)Nc1ccccc1C)C(=O)CSc1ccccc1C	6.4	6.7	3978	.	-14.5	7.2	7.9
COc1ccc(CCNC(=O)c2ccc(S(=O)(=O)N3CCCCC3)cc2)cc1	1.6	1.9	3903	.	-36.0	-4.5	-1.7
CC(C)(C)C(=O)Nc1nnc(CCc2ccccc2)s1	6.4	0.8	3665	13.9	-46.2	4.9	2.7
FC(F)(F)c1cc(-c2ccco2)nc(-n2cnc3ccccc32)n1	4.6	-8.6	9827	7.5	-11.3	1.1	0.1
Cc1ccc(NC(=O)CCN2C(=O)c3ccccc3C2=O)c(C)c1	5.8	21.0	3502	-16.3	-28.1	15.5	9.4
CCS(=O)(=O)N1CCN(C(=O)C(c2ccccc2)c2ccccc2)CC1	2.2	4.3	9248	5.4	-12.4	12.8	4.2
C=CCn1cc(-c2ccc(Cl)cc2)cc(C#N)c1=O	4.2	-4.6	2580	7.8	6.3	7.8	-5.0
Cc1c(NC(=O)COc2ccc3ccc(=O)oc3c2)c(=O)n(-c2ccccc2)n1C	4.2	4.0	5416	2.3	-13.8	4.3	-1.5
O=C(Nc1cccc(C(=O)N2CCOCC2)c1)c1ccccc1Cl	0.9	2.3	4652	-2.6	-9.6	5.2	-5.3
O=C(Nc1cccc(-c2cnc3ccccc3n2)c1)C1CC(=O)N(c2ccccc2)C1 (stereo unspecified)	-0.2	-3.8	6160	-14.2	-7.4	2.9	2.0
O=C(NC1=NCCS1)C1CC(=O)N(c2ccccc2)C1 (stereo unspecified)	5.1	-6.3	3804	-10.8	-5.0	13.3	13.9
Cc1onc(-c2c(F)cccc2Cl)c1C(=O)c1ccc(F)cc1	6.7	6.0	.	4.8	.	-3.0	-6.0
CC1CCN(S(=O)(=O)c2ccc3c(c2)N(CC(=O)NCCCN2CC(C)CC(C)C2)C(=O)CS3)CC1 (stereo unspecified)	0.1	1.2	5707	12.3	-11.6	11.3	1.0
Cn1cc(S(=O)(=O)N2CCC3(CC2)OCCO3)c(=O)n(C)c1=O	-14.1	-3.0	5424	-0.7	-15.9	6.8	1.4
CCn1c(SCC(=O)NNC(=O)c2ccco2)nnc1-c1ccco1	5.3	-0.9	4543	-1.4	7.5	0.6	-0.6
Cc1c(Cl)c([N+](=O)[O-])nn1CCCC(=O)Nc1cccnc1	1.7	5.2	3323	0.7	-14.7	5.0	4.0
COc1ccccc1OCCSc1nc(N)cc(N)n1	4.0	8.9	3124	-1.8	-25.7	4.9	3.2
Cn1c(N)c(C(=O)COC(=O)c2ccc(OC(F)F)cc2)c(=O)n(C)c1=O	3.1	1.5	2936	.	-9.1	4.5	1.1
O=C(Oc1ccc2ccc(=O)oc2c1)C1CCCCC1	0.7	3.8	2008	9.1	-21.5	-2.3	0.0
Cc1ccc(C)c(-n2c(SCC(=O)N3CCCC3)nnc2-c2ccccn2)c1	1.6	3.9	2782	-0.5	-25.5	.	.
O=C(NCCN1CCN(C(=O)NC2CCCCC2)CC1)NC1CCCCC1	-1.1	11.9	3370	-4.5	-12.6	25.7	6.6
COC(=O)c1ccc(NC(=O)C2CCCN2C(=O)OCc2ccccc2)cc1 (stereo unspecified)	2.4	12.1	5380	14.8	-18.9	9.3	5.7
O=C1c2ccccc2CC1Sc1nnc(-c2ccccn2)o1 (stereo unspecified)	5.7	12.0	4314	1.8	-29.1	-0.8	0.6
CCOP(=O)(OCC)c1cccc(P(=O)(c2ccccc2)c2ccccc2)c1O	7.7	-7.9	3569	5.7	-22.0	-4.4	-2.0
COc1ccc(C(CNC(=O)CCNC(=O)c2ccccc2OC)N2CCCC2)cc1 (stereo unspecified)	0.0	8.5	6700	-0.3	-25.3	-7.1	3.4
CN(Cc1nc2ccccc2c(=O)[nH]1)C(=O)C1CC(=O)N(c2cccc3ccccc23)C1 (stereo unspecified)	0.3	2.4	3709	.	-11.7	7.3	10.3
Cc1cccc2nc(COc3ccc(-c4ccccc4)cc3)cn12	9.6	3.5	.	10.1	.	15.4	7.7
Cc1cc(C)nc(N2CCC(C(=O)NCCc3ccc(Cl)cc3)CC2)n1	-0.2	-0.6	3478	4.1	46.4	15.9	8.1
COC(=O)C(Cc1ccc(O)cc1)NC(=O)CCc1ccco1 (stereo unspecified)	0.0	-1.4	3153	-0.4	-3.1	7.6	-0.8
CC(=O)Nc1ccc(NC(=O)CN(c2cc(Cl)ccc2Cl)S(C)(=O)=O)cc1	5.0	2.3	4335	-9.5	-16.7	-7.9	-3.0
CCOCCCn1c(SCC(=O)NCc2ccc3c(c2)OCO3)nc2ccccc2c1=O	1.5	-0.8	2722	-6.1	-17.5	0.7	-0.5
CCN(C(=O)COC(=O)c1ccccc1SCC(=O)N1CCCC1)C1CCS(=O)(=O)C1 (stereo unspecified)	4.0	9.2	.	-1.0	-7.3	10.3	-0.5
Cc1c(C(=O)O)[nH]c2c1C(=O)CC(c1ccc(C(C)(C)C)cc1)C2 (stereo unspecified)	13.7	-2.2	3523	-9.3	-83.3	-1.5	6.1
Cc1cc(C(=O)CN2C(=O)C(=O)N(Cc3ccccc3)C2=O)c(C)n1CC1COc2ccccc2O1 (stereo unspecified)	6.0	-3.1	4836	0.9	-9.2	5.2	4.0
